Sfp inh: qHTS Assay for Inhibitors of Bacillus subtilis Sfp phosphopantetheinyl transferase (PPTase). 4'-phosphopantetheinyl transferase ffp (Bacillus subtilis), Q9F4F7. Biochemical Sfp PPTase activity, qHTS. Potency, µM, without a hit: max response, negative = inhibition, usual class: inhibitors. 310,000 compounds, 3.5% hits. AID 1490, 2009; active = well fitted inhibition curve with a large enough effect; inconclusive = small, poorly fitted or top-dose-only effect, or another doubt; inactive = no such curve, though single readings can be large or run the other way;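 note: the enzyme is Sfp with the accession as filed and its product quenches rhodamine fluorescence; potency is the fitted concentration of half-maximal effect; 0% = enzyme reaction without inhibitor and -100% = no enzyme wells; top concentration of the series not given in the record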
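Compounds were incubated with enzyme (final 15 nM) for 15 min at room temperature before substrate addition started the reaction. Fluorescence at 525 nm excitation, 598 nm emission was recorded immediately and after 30 minutes.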
D2 agonist: Beta-Arrestin HTS for Positive Allosteric Modulators of the Human D2 Dopamine Receptor: Agonists | activation, % (no concentration beside the values) | 360,000 compounds, 0.084% hits | DiscoveRx PathHunter D2 beta-arrestin, luminescence, 90 min; 100% = 57 uM dopamine signal | D(2) dopamine receptor (Homo sapiens), P14416; in the data active = activation above about 40%; inconclusive = about 15% to 40%; inactive = below about 15%; note: compound concentration not given in the record; the text of the record calls up to 30% inactive
Target sequence (P14416 whole entry, looked up): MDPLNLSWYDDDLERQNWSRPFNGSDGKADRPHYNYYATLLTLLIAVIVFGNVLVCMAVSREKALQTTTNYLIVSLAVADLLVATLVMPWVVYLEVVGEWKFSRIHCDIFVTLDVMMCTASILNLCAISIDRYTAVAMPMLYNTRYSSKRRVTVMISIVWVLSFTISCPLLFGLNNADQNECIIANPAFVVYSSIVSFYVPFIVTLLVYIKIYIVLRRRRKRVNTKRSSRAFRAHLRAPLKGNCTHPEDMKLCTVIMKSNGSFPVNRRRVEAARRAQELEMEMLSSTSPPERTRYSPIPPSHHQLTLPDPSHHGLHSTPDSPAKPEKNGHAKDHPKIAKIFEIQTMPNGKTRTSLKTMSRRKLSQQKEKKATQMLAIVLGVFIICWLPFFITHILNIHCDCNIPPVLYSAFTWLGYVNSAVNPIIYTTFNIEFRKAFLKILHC
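DiscoveRx PathHunter D2 beta-arrestin cells (2,100/well) attached overnight, then compound-stimulated 90 min at 37 C in HBSS/10 mM HEPES/0.1% Tween-20 buffer; beta-galactosidase complementation read by luminescence after 1 h at ambient temperature. Dopamine 57 uM final (EC100) as control.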
D2 PAM: Beta-Arrestin HTS for Positive Allosteric Modulators of the Human D2 Dopamine Receptor: Potentiators; 360,000 compounds, 0.23% hits; DiscoveRx D2 beta-arrestin cells, luminescence, 90 min; 100% = 57 uM dopamine signal; AID 624464, 2012; D(2) dopamine receptor (Homo sapiens), P14416; potentiation, % (no concentration beside the values); active = potentiation of 50% or more; inconclusive = 30% to 50%; inactive = 30% or less;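 note: compound concentration not given in the record; tested on top of an EC20 dose of dopamine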
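PathHunter D2 cells, attached overnight at 37 deg C, received compound in DMSO plus dopamine at EC20 (50 nM final) for 90 min at 37 deg C. Beta-arrestin recruitment was read as luminescence after 1 h with detection reagent at ambient temperature.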
CtBP-E1A blk: qHTS Assay for Inhibitors of the CtBP/E1A Interaction. CtBP / adenovirus E1A interaction (AlphaScreen). AlphaScreen GST-E1A/His-CtBP binding, 1536-well; stronger effect = lower value; control for the full effect not named in the record. activity change, % (test concentration not listed). 340,000 compounds, 0.49% hits. AID 651724, 2012; in the data active means activity change below about -65%; inconclusive means about -30% to -65%; inactive means above about -30%; note: % is set by controls: 0 for no effect and ±100 for the full control effect
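GST-E1A and His-tagged CtBP (125 nM each as 5X stock) were preincubated with pin-transferred compound for 2 h at 37 °C in the dark, then glutathione donor and nickel acceptor beads were added for 1 h before AlphaScreen reading.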
Six1-Eya2 inh: qHTS Assay for Inhibitors of the Six1/Eya2 Interaction. 360,000 compounds, 0.56% hits. AlphaScreen GST-Six1/His-Eya2 binding, biochemical; stronger effect = lower value; control for the full effect not named in the record. activity change, % (concentration not given with the values); in the data active = activity change below about -65%; inconclusive = about -30% to -65%; inactive = above about -30%; note: % is set by controls: 0 for no effect and ±100 for the full control effect
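Homogeneous AlphaScreen proximity assay pairing GST-Six1 with His-tagged Eya2 (added as 5X mix: 250 nM and 500 nM) in 50 mM Tris pH 8.0, 300 mM NaCl, 1 mM TCEP. Glutathione donor and nickel acceptor beads; 1 h, 37 °C, dark.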
TRPV1 PAM: HTS Assay for Compounds that Act as Potentiators of the Vanilloid Receptor 1; TRPV1-expressing cells, Fluo-8 calcium influx, capsaicin EC20 potentiation; host cell line not named in the record; control for the full effect not named in the record; potentiation, % at 8.33 µM; Transient receptor potential cation channel subfamily V member 1 (Homo sapiens), Q8NER1; 320,000 compounds, 0.02% hits; AID 540277, 2011; active means potentiation above 80%; inconclusive means 30% to 80%; inactive means below 30%; note: 0% is about no effect
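TRPV1-expressing cells were cultured overnight at 35.5C and loaded with Fluo-8 calcium dye for 40 to 90 min at room temperature. After a 10 s baseline, compound was added and calcium influx was read kinetically for 3 min (ex 480/em 520 nm).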
PINK1 modulator: A Quantitative High throughput Screen to Identify Chemical Modulators of PINK1 Expression | PINK1 immunofluorescence, high-content cytometry, 24 h | Potency, µM (series often up to 76.6 µM), without a hit: top-dose activation (PINK1 increase), most hits filed as activators | 410,000 compounds, 0.2% hits; active = well fitted activation curve with a large enough effect; inconclusive = small, poorly fitted or top-dose-only effect; inactive = flat fitted curve, though single readings scatter; cell line not stated here;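 note: potency is the fitted concentration of half-maximal effect; % of control where 0% means no effect; nearly all actives have a fitted effect of over 65% in size; a mitochondrial uncoupler was the plate control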
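Stable cell line treated 24 h with compounds at 5 concentrations (CCCP controls), then fixed and immunostained for PINK1 plus nuclear and cell stains; PINK1 immunofluorescence quantified by laser-scanning microplate cytometry.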
Starred values were filed as active, the others as inactive; ? = inconclusive; . = no result given; [ ] = another dose, or the depositor's remark.

SMILES	Sfp inh	D2 agonist	D2 PAM	CtBP-E1A blk	Six1-Eya2 inh	TRPV1 PAM	PINK1 modulator
Cc1cc(NC(=O)c2c(Cl)cnn2C)no1	7%	-0.5	-5	3	0	0	-3.4%
CCC(=O)NC(=S)Nc1ccc(OC)cc1OC	20%	-2.3	5	18	4	8	-0.4%
O=C(CSC1=NS(=O)(=O)c2cc(Cl)ccc2N1)c1ccc(Cl)cc1	.	-5.8	-4	9	6	11	4.7%
COC(=O)[C@@]1(Sc2ccc(C)cc2)CC(=O)N(C(=O)/C=C/c2ccccc2)[C@@H]1c1ccccc1	.	.	.	2	3	.	0.6%
COc1ccc(-c2ccc3oc(-c4ccsc4)c(-c4ccc(OC)cc4)c3c2)cc1	.	-0.2	-35	?	0	.	6.3%
CC(C)(C)N1C(=O)[C@H]2[C@@H](c3ccc(Br)cc3)N3C(=O)N(c4cccc(Br)c4)C(=O)[C@@]3(Cc3ccccc3)[C@H]2C1=O	15%	0.0	-11	-1	-1	-11	-0.6%
Cc1ccc(Oc2cc(NC(=O)CCCn3nc(C)c([N+](=O)[O-])c3C)cc([N+](=O)[O-])c2)cc1	4%	-3.3	-21	-4	-7	25	9.1%
S=C(NCC1CCCO1)N1CCN(c2nc(-c3ccccc3)cs2)CC1 (centres undefined)	6%	0.9	-16	-6	-6	-5	0.7%
CCn1cc(C(=O)NC2CCCCC2)c(=O)c2ccc(C)nc21	4%	-2.2	-2	-3	4	-13	0.8%
C=CCNC(=S)NNC(=O)C(CCCC)CC(O)COCC(C)C (centres undefined)	9%	-0.5	-5	4	4	1	-0.1%
COC(=O)c1ccc2nc(-c3ccc(F)cc3)c(Cc3ccsc3)n2c1	.	-4.6	-13	2	0	.	5.1%
Cc1cccc(C(=O)Nc2ccc(C(=O)N/N=C/c3cccnc3)cc2)c1	16%	-3.2	-3	0	-6	-1	0.5%
O=[N+]([O-])c1ccc(Cl)cc1Sc1cccc2cccnc12	16%	0.3	14	-5	-4	-18	3.0%
Oc1ccc(/C=N/Nc2nc(-c3ccc(Cl)cc3)cc(C(F)(F)F)n2)cc1	2%	6.6	-10	-3	-20	-18	-1.9%
FC(F)(F)c1nc2nccnc2[nH]1	.	-4.9	-1	-1	-14	.	3.1%
CCC(C)Sc1nc(O)c(Cc2ccccc2)c(=O)[nH]1 (centres undefined)	-2%	-2.5	-10	2	-4	-2	-2.3%
CC(=O)n1cc([C@@H]2C=C(C(=O)NCc3ccccc3)O[C@H](OCCCCO)C2)c2ccccc21	-8%	0.8	-6	-1	-4	21	1.0%
Cc1ccc(C)c(NC(=O)Nc2ccc3c(c2)OCO3)c1	0%	-1.6	-10	5	-6	4	1.8%
O=C(CC(c1ccccc1)c1cc(Br)ccc1O)NCCN1CCOCC1 (centres undefined)	0%	-1.9	-32	-2	-14	4	-0.6%
CCN(C(=O)COC(=O)CCC(=O)c1ccc(C)cc1)c1c(N)n(Cc2ccccc2)c(=O)[nH]c1=O	.	4.6	-5	8	2	.	1.1%
C[C@H]1CCC[C@]2(C)C[C@H]3OC(=O)C(CN4CCCCCC4)[C@H]3C=C12 (some centres undefined)	1%	4.2	-10	4	-2	7	-1.2%
N#Cc1cc2c(nc1SCC(=O)N1CCCCC1)CCCC2	1%	-2.2	-24	2	0	-4	-0.2%
CC(C)=CCn1c2ccc(NC(=S)NC3CC3)cc2c(=O)n1C	.	5.9	2	-1	1	.	0.5%
CCN(CC)c1ccc(C2C3CCCCC3(O)CCN2CC(=O)Nc2ccccc2)cc1 (centres undefined)	-1%	0.8	-13	-6	-11	-8	-0.4%
Cc1cccc2c3nc4ccccc4nc3n(C)c12	14%	-1.2	-3	-2	16	9	0.1%
New compounds follow:
SMILES	Sfp inh	D2 agonist	D2 PAM	CtBP-E1A blk	Six1-Eya2 inh	TRPV1 PAM	PINK1 modulator
O=c1cc(-c2ccccc2)cc(-c2ccccc2)n1CCO	.	-3.2	-11	2	5	-3	-0.7%
CCOC(=O)C1(Cc2cccc(OC)c2)CCN(Cc2ccccc2)CC1	-2%	0.0	-11	-3	-2	-4	5.7%
CCN(CC)CC(=O)Nc1ccccc1SCC(=O)Nc1ccsc1C(=O)OC	-26%	-7.3	-8	-2	3	10	1.7%
O=C(Nc1ccc2c(c1)OCO2)C1CCCCC1	7%	-1.8	-2	2	-3	-15	-0.8%
CC1(C)Cc2c(c(N3CCOCC3)nc3sc4c(=O)[nH]cnc4c23)CS1	-24%	-4.4	12	-16	-15	-2	-0.2%
COc1ccc(NC(=O)Nc2nnc(N3CCCCC3C)s2)cc1OC (centres undefined)	-5%	-4.3	1	0	-6	-3	-0.9%
CCC(=O)Nc1ccc(NC(=O)C23CC4CC(CC(C4)C2)C3)cn1	-1%	-2.6	-14	.	5	-8	4.5%
CC(/C=N/NC(=O)c1ccncc1)=C\c1ccco1	7%	-4.2	-11	-5	-6	-21	5.1%
CCn1cc(C(=O)NCCN(C)CCc2ccccc2)c(=O)c2cc(S(=O)(=O)N(C)C)ccc21	5%	-1.4	-13	-16	-7	10	8.2%[38.3 µM]
O=C(COc1coc(CN2CCc3ccccc3C2)cc1=O)Nc1cccc(Cl)c1	.	4.3	-3	0	-5	7	?
O=S(=O)(c1ccccc1)c1nc(-c2ccccc2)oc1NCc1cccnc1	9%	-1.7	-13	-5	-1	-5	0.8%
C1=C[C@@H]2CCN(Cc3ccccc3)Cc3cccc(c32)C1	.	4.8	-10	3	-7	-4	16%
O=C(COC(=O)COc1ccccc1)Nc1ccc(S(=O)(=O)N2CCOCC2)cc1	16%	-1.5	0	2	-1	-3	-1.2%
COc1ccccc1NS(=O)(=O)c1cccc(NS(=O)(=O)c2ccc(Cl)c(C(=O)O)c2)c1	.	-0.1	-1	2	2	.	3.0%
FC(F)(F)c1nc2ccccc2n2c(-c3ccc(Cl)cc3)nnc12	16%	-2.4	3	-19	2	-3	-1.4%
Cc1ccc(NC(=O)c2nnn(-c3cccc(C(F)(F)F)c3)c2N)cc1	4%	-1.1	4	4	-9	6	0.8%
Cc1ccc(/C(N)=N/OC(=O)CCCc2ccccc2)cc1	-3%	-1.2	1	120	68	-2	8.9%
COc1ccccc1CCNC(=O)c1cc(COc2cccc(C(F)(F)F)c2)on1	10%	0.7	-7	.	15	11	2.0%
CCN(CC)CC(O)Cn1c2ccccc2c2ccccc21 (centres undefined)	12%	-2.0	-25	-3	6	17	0.3%
Clc1ccccc1-c1nnc2sc(-c3ccco3)nn12	-1%	-0.6	-3	0	-3	7	-0.8%
CC(C)(Oc1ccc(Cl)cc1)C(=O)NCc1ccco1	-7%	-2.6	2	4	8	4	9.6%
COc1cc2c(c(Br)c1N)-c1cc(Br)c(N)cc1C2=O	.	0.4	-16	-13	-22	.	1.4%
O=c1o[nH]c(-c2ccccc2)c1C1=NCCCCC1	14%	-5.2	-3	6	0	-13	-2.1%
CC1CCCC(NC(=O)CCNS(=O)(=O)c2ccc(Br)cc2)C1C (centres undefined)	-3%	-2.4	-1	-18	4	-17	1.0%
Cn1cc(P(=S)(N2CCOCC2)N2CCOCC2)cc1P(=O)(N1CCOCC1)N1CCOCC1	50µM*	-1.0	-7	9	3	-6	1.1%

Single records, as listed above:
Clc1ccccc1-c1nnc2sc(-c3ccco3)nn12 as listed: Sfp inh: -1%; D2 agonist: -0.6; D2 PAM: -3; CtBP-E1A blk: 0; Six1-Eya2 inh: -3; TRPV1 PAM: 7; PINK1 modulator: -0.8%
O=C(COc1coc(CN2CCc3ccccc3C2)cc1=O)Nc1cccc(Cl)c1 as listed: Sfp inh: .; D2 agonist: 4.3; D2 PAM: -3; CtBP-E1A blk: 0; Six1-Eya2 inh: -5; TRPV1 PAM: 7; PINK1 modulator: ?

(continued)
SMILES	Sfp inh	D2 agonist	D2 PAM	CtBP-E1A blk	Six1-Eya2 inh	TRPV1 PAM	PINK1 modulator
COCc1cc(C)nc2sc3c(=O)n(Cc4ccco4)nnc3c12	-26%	-4.8	-3	-21	11	6	0.1%
COc1ccc(NC(=O)/C(C#N)=C\C=C\c2ccco2)cc1	-26%	2.1	1	1	-10	-14	4.3%
COc1ccccc1OCc1cc(C(=O)NCc2ccc(N3CCCC3=O)cc2)no1	3%	6.0	-19	-25	1	-6	-1.7%
Cc1nc(-n2[nH]c3c(c2=O)CCCC3)[nH]c(=O)c1Cc1ccccc1	0%	-7.7	-20	?	?	27	3.3%
O=C(NC(=S)NCC1COc2ccccc2O1)c1ccccc1 (centres undefined)	-7%	-0.2	5	2	-11	-6	-0.3%
CCCCNCCOCCOc1ccc(C)cc1Br	-7%	-8.9	-48	14	0	-15	5.9%
CCOC(=O)c1[nH]c(C)c(/C(O)=C2\C(=O)C(=O)N(CCN(C)C)C2c2cccc(OC)c2OC)c1C (centres undefined)	4%	0.6	-11	8	2	-2	1.2%[38.3 µM]
Cc1nc(CSc2nnc3scc(-c4ccc(Cl)cc4)n23)cs1	9%	1.1	-2	6	1	-11	-3.1%[38.3 µM]
O=C(CCN1c2ccccc2Sc2ccccc21)OCc1nnc(-c2ccccc2)o1	5%	-5.4	-27	20	0	22	-0.6%
O=C(c1ccc(Cl)cc1)N1CCN(c2ccc(N3CCOCC3)nn2)CC1	.	-1.4	-18	-2	-3	.	-0.4%
CC(C)c1ccc(NC2CCCN(C(=O)c3n[nH]c4c3CCC4)C2)cc1 (centres undefined)	10%	1.9	-10	-9	-11	-33	-0.6%
c1cncc(-c2nnc(C3CCCCC3)o2)c1	15%	-1.8	4	8	2	5	2.4%[38.3 µM]
Cc1ccc(Nc2cc(C)nc3ncnn23)cc1	21%	0.1	-9	-6	-3	0	0.7%
O=C(NCCCN1CCOCC1)c1ccc(NS(=O)(=O)c2cccc([N+](=O)[O-])c2)cc1	16%	-4.3	-10	11	-1	0	-2.2%
O=C(Cn1c(=O)n(CCCCC(=O)NC2CCCC2)c(=O)c2ccccc21)NCCC1=CCCCC1	17%	-3.0	-1	3	3	-8	1.7%
